HPGD inh: blocks human HPGD enzyme activity; P15428; purified HPGD, NADH fluorescence kinetic, PGE2 substrate; Potency, µM, for the others: at the highest dose activity change, negative = inhibition, actives largely listed as inhibitors; hit rate 4.3% among 150,000; AID 894; active = well fitted inhibition curve with a large enough effect (not every such curve was filed as active); inconclusive = small, poorly fitted or top-dose-only effect, or another doubt; inactive = no such curve, though single readings can be large or run the other way;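 note: top concentration of the series not given in the record; plate controls included wells without enzyme; inactives centre near -10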
Target sequence (P15428 whole entry, looked up): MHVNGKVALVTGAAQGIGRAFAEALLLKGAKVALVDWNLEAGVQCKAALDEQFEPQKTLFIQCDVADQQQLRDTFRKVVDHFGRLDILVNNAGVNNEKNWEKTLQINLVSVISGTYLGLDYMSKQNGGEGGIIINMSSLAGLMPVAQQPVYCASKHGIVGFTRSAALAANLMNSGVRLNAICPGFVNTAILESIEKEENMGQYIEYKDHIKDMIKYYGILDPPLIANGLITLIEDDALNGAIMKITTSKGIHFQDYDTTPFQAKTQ
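NADH formation kinetics: reaction with 30 uM PGE2 and 1 mM NAD+ (final), 20 nM enzyme, Tris-HCl pH 8 with Tween 20, after 15 min compound preincubation at room temperature. Fluorescence change, last versus first of five reads.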
Starred values were filed as active, the others as inactive; ? = inconclusive; & = joins results of further samples. % is set by controls: 0 for no effect and ±100 for the full control effect; potency is the fitted concentration of half-maximal effect. This is a subset. The share of hits here may be higher or lower than overall.

COc1ccc(NC(=O)CCCN(C)S(=O)(=O)c2ccc(C)cc2)cc1
- HPGD inh: -3%

Cc1ccc(-c2noc(CN3CCOCC3)n2)cc1
- HPGD inh: -7%

CCOCCn1c(=NC(=O)c2cc(Cl)sc2Cl)sc2cc(S(N)(=O)=O)ccc21
- HPGD inh: -7%

COc1ccccc1-n1cnc2cc(C(=O)NC3CCCC3)ccc21
- HPGD inh: 16µM*

Cc1ccc(-c2noc(CCC(=O)N3CCCC3)n2)cc1
- HPGD inh: 25µM*

C=CCn1c(SCC(=O)NC(=O)NCc2ccco2)nc2sc(C)c(C)c2c1=O
- HPGD inh: -9%

CC(C)(C)C(=O)N(Cc1nc2ccccc2c(=O)[nH]1)Cc1cccs1
- HPGD inh: -4%

COc1ccccc1NC(=O)CC(=O)CSc1nnc(-c2ccc(C)cc2)n1-c1ccccc1
- HPGD inh: -24%

COc1ccc(NC(=O)C(c2cc3c(cc2[N+](=O)[O-])OCO3)N(C)C)cc1 (stereo unspecified)
- HPGD inh: -11%

CCN1CCN(c2cc(C)c3cc(NC(=O)c4ccc5c(c4)OCO5)ccc3n2)CC1
- HPGD inh: -16%

O=C(CCc1ccccc1)NNC(=O)c1ccco1
- HPGD inh: 28µM*

CC1=C(C(=O)OC(C)C)C(C)NC(=O)N1 (stereo unspecified)
- HPGD inh: -8%

CCOCc1nnc(NC(=O)c2ccco2)s1
- HPGD inh: -24%

CCCCCOC(=O)NCCOC(=O)Nc1ccc(C(=O)OCC)cc1
- HPGD inh: -13%

CCOC(=O)c1c(C)n(C)c2ccc(O)c(CN3CCCCC3)c12
- HPGD inh: 5%

Reformatted tab-delimited: part of the list above
smiles	HPGD inh
COc1ccccc1-n1cnc2cc(C(=O)NC3CCCC3)ccc21	16µM*
Cc1ccc(-c2noc(CCC(=O)N3CCCC3)n2)cc1	25µM*
C=CCn1c(SCC(=O)NC(=O)NCc2ccco2)nc2sc(C)c(C)c2c1=O	-9%
CC(C)(C)C(=O)N(Cc1nc2ccccc2c(=O)[nH]1)Cc1cccs1	-4%
COc1ccccc1NC(=O)CC(=O)CSc1nnc(-c2ccc(C)cc2)n1-c1ccccc1	-24%
COc1ccc(NC(=O)C(c2cc3c(cc2[N+](=O)[O-])OCO3)N(C)C)cc1 (stereo unspecified)	-11%
CCN1CCN(c2cc(C)c3cc(NC(=O)c4ccc5c(c4)OCO5)ccc3n2)CC1	-16%

Later entries:
CC(C)(C)c1ccc(-c2nnc(SCC(=O)O)n2N)cc1
- HPGD inh: -13%

Cc1cc(OCCCn2cnc3ccccc3c2=O)ccc1[N+](=O)[O-]
- HPGD inh: 1%

CC(C)Oc1ccc(C(CC(=O)O)NC(=O)CSc2ncn[nH]2)cc1 (stereo unspecified)
- HPGD inh: 1%

CCC(C)(C)C(=O)O[C@@H]1C[C@@H](C)C=C2C=C[C@H](C)[C@H](CC[C@@H]3C[C@@H](O)CC(=O)O3)[C@H]21
- HPGD inh: -2%

O=C(CCn1c(=O)sc2ccccc21)NCCCn1ccnc1
- HPGD inh: 1%

CC(C)(C)c1ccc(C(=O)N2CCC(C(=O)NCCC3=CCCCC3)CC2)cc1
- HPGD inh: 1%

Clc1ccc(CSC2=NCCCN2)cc1Cl
- HPGD inh: -12%

Cc1cc(=O)oc2cc(OCC3CC(c4ccccc4)=NO3)ccc12 (stereo unspecified)
- HPGD inh: ?

CCN(CC(=O)NC1CCS(=O)(=O)C1)S(=O)(=O)c1ccccc1 (stereo unspecified)
- HPGD inh: -10%

COC(=O)C1C2C=CC(C3CC23)C1C(=O)OCC(=O)c1ccc(OC)cc1 (stereo unspecified)
- HPGD inh: 28µM*

C=C(C)CSc1nnc2n(N)c(=O)c3ccccc3n12
- HPGD inh: -10%

Cc1c(C(=O)OCC(=O)N2c3ccccc3CC2C)oc2ccccc12 (stereo unspecified)
- HPGD inh: -9%

Fc1cccc(CSc2nc3ccncc3[nH]2)c1
- HPGD inh: -4%

CCOC(=O)n1cc(-c2cnc(CNC(=O)C(C)(c3ccccc3)c3ccccc3)o2)c2ccccc21
- HPGD inh: -10%

CCCC(O)(CCC)C(=O)NN(C(=O)OC)c1ccccc1
- HPGD inh: -9%

Five compounds from above, ordered by their value in HPGD inh, ascending.
SMILES	HPGD inh
Clc1ccc(CSC2=NCCCN2)cc1Cl	-12%
CCN(CC(=O)NC1CCS(=O)(=O)C1)S(=O)(=O)c1ccccc1 (stereo unspecified)	-10%
Cc1c(C(=O)OCC(=O)N2c3ccccc3CC2C)oc2ccccc12 (stereo unspecified)	-9%
Fc1cccc(CSc2nc3ccncc3[nH]2)c1	-4%
O=C(CCn1c(=O)sc2ccccc21)NCCCn1ccnc1	1%

Additional results
Cc1ccc2nc(N(CCCN(C)C)C(=O)c3ccc(S(=O)(=O)N(C)C)cc3)sc2c1
- HPGD inh: -2%

Cc1ccc(S(=O)(=O)c2cc3c(=O)n4ccccc4nc3n(Cc3ccco3)c2=N)cc1
- HPGD inh: ?

Cc1ccc(C)c(OCC(O)CN2CCCCC2C)c1 (stereo unspecified)
- HPGD inh: -10%

CCCCn1c(SCc2ncc(-c3ccccc3)o2)nc2cc(S(N)(=O)=O)ccc21
- HPGD inh: -14%

Cc1cc(C)c[n+](C(C)C(=O)c2ccc(-c3ccccc3)cc2)c1 (stereo unspecified)
- HPGD inh: -6%

CCCOc1ccc(C(CC(=O)O)NC(=O)c2ccc3c(c2)OCO3)cc1 (stereo unspecified)
- HPGD inh: 3%

Cc1ccc(N2C(=O)C3CC(c4ccccc4)=C4C5C=CC(C6C(=O)N(c7ccc(C)cc7)C(=O)C56)C4C3C2=O)cc1 (stereo unspecified)
- HPGD inh: -7%

CCCCN(C)c1ccc([N+](=O)[O-])cc1
- HPGD inh: -13%

CCOC(=O)/C=C(\C)Nc1cc(C)nn1-c1ccccc1
- HPGD inh: -4%

Cn1c(Cc2cccc3ccccc23)nnc1SCC(=O)N1CCN(c2cccc(Cl)c2)CC1
- HPGD inh: -4%

Cc1ccc(NC(=O)CN2c3cccc4cccc(c34)S2(=O)=O)cc1S(=O)(=O)N1CCOCC1
- HPGD inh: -29%

COc1cccc(-c2cc(C(F)(F)F)nc(N3CCCCC3)n2)c1
- HPGD inh: -21%

CCOC(=O)N1CCN(C(=O)c2cc(-c3ccc(OCC)cc3)nc3ccccc23)CC1
- HPGD inh: ?

Cc1cc(C=C2C(=O)c3ccccc3C2=O)c(C)n1-c1ccccc1
- HPGD inh: -17%

COCCNC(=O)c1cc(-c2cccs2)on1
- HPGD inh: ?

Cn1c(SCC(=O)c2ccccc2)nnc1-c1ccc(O)cc1
- HPGD inh: ?

CCCCCCCCCCCCC/C=C/[C@@H](O)[C@@H](N)COP(=O)(O)O
- HPGD inh: -3%&-1%

CC(=O)c1c(C)n(CC(=O)NCc2ccc3c(c2)OCO3)c2ccccc12
- HPGD inh: -7%

O=[N+]([O-])c1ccc(Cl)c(/C=N/n2c(COc3ccccc3)n[nH]c2=S)c1
- HPGD inh: 8.9µM*

CC(C)Cn1c(N)c(C(=O)COC(=O)c2ccc3c(c2)OCCO3)c(=O)n(C)c1=O
- HPGD inh: -10%

O=C(CSc1nc2ccccc2o1)N1CCN(S(=O)(=O)c2ccc3ccccc3c2)CC1
- HPGD inh: -1%

O=c1c2cnn(-c3ccccc3Cl)c2ncn1Cc1cccnc1
- HPGD inh: -24%

O=C(/C=C/c1ccc2c(c1)OCO2)N1CCN(c2ccc(Cl)cc2)CC1
- HPGD inh: -7%

CNC(=O)/C(C#N)=C/c1c(N2CC(C)OC(C)C2)nc2ccccn2c1=O (stereo unspecified)
- HPGD inh: ?

O=C(CC1(O)CCCCC1)OC1CCCC1
- HPGD inh: -2%

CCCCN1C(=O)NC2NC(=O)NC21 (stereo unspecified)
- HPGD inh: 1%

Cc1ccc(-n2cnc3scc(-c4cccs4)c3c2=O)cc1
- HPGD inh: -18%

O=C(CNS(=O)(=O)c1ccccc1)NCc1ccccn1
- HPGD inh: -13%

O=C(CC1Sc2ccccc2NC1=O)Nc1cccc(-c2nnc3n2CCCCC3)c1 (stereo unspecified)
- HPGD inh: 32µM*

CC1(C)CC(O)(CNCc2ccc3c(c2)OCO3)CCO1 (stereo unspecified)
- HPGD inh: -6%

Nothing new here: an excerpt of the list.
Cn1c(SCC(=O)c2ccccc2)nnc1-c1ccc(O)cc1
- HPGD inh: ?

CCCCCCCCCCCCC/C=C/[C@@H](O)[C@@H](N)COP(=O)(O)O
- HPGD inh: -3%&-1%

CC(=O)c1c(C)n(CC(=O)NCc2ccc3c(c2)OCO3)c2ccccc12
- HPGD inh: -7%

O=[N+]([O-])c1ccc(Cl)c(/C=N/n2c(COc3ccccc3)n[nH]c2=S)c1
- HPGD inh: 8.9µM*

CC(C)Cn1c(N)c(C(=O)COC(=O)c2ccc3c(c2)OCCO3)c(=O)n(C)c1=O
- HPGD inh: -10%

(listing goes on)
O=C(CCc1nc2ccccc2c(=O)[nH]1)NCc1cccc(Cl)c1
- HPGD inh: -4%

Cc1ccc(C(=O)Nc2cccnc2)cc1NC(=O)c1ccco1
- HPGD inh: -2%

CCOC1=NC(C(=O)O)c2ccccc2/C(=C(/C)Cl)N1 (stereo unspecified)
- HPGD inh: -2%

C=CCN1C(=O)C2C(C(=O)NC)C3C=CC2(O3)C1C(=O)NCc1ccc(OC)cc1 (stereo unspecified)
- HPGD inh: 0%

Cc1cccc(C)c1Nc1nnc(SCC(=O)c2ccc3c(c2)NC(=O)CO3)s1
- HPGD inh: -11%

Cc1ccc(CNC(=O)COc2ccc(S(=O)(=O)NC(C)C)cc2)cc1
- HPGD inh: -11%

COC(=O)NNC(=O)COc1ccc(Cl)cc1
- HPGD inh: -5%

CCc1ccc2c(CN3CCN(S(=O)(=O)c4ccc5c(c4)OCCO5)CC3)cc(=O)oc2c1
- HPGD inh: -14%

Cc1ccc(NC2CC(=O)N(c3ccc(N4CCCCC4)cc3)C2=O)cc1 (stereo unspecified)
- HPGD inh: -12%

CSc1ncc(Cl)c(C(=O)Nc2nnc(SC/C=C/c3ccccc3)s2)n1
- HPGD inh: -24%

O=C(Nc1ccccc1)N1CCOCC1
- HPGD inh: -8%

Cc1ccc(CS(=O)(=O)Cc2ccc(C(=O)NCc3cccnc3)o2)cc1
- HPGD inh: -11%

COc1ccc(CCNc2nnc(Sc3nnnn3-c3ccccc3)s2)cc1OC
- HPGD inh: -7%

O=C(Nc1cccc(-n2cnnn2)c1)c1ccco1
- HPGD inh: -24%

CCc1ccccc1S(=O)(=O)Cc1ccc(C(=O)N2CCN(c3ccccn3)CC2)o1
- HPGD inh: -12%

O=C(CN1C(=O)c2ccccc2S1(=O)=O)NCCC1=CCCCC1
- HPGD inh: 1%

COc1cccc(CNc2ccc(S(N)(=O)=O)cc2)c1OC
- HPGD inh: -6%

O=C(c1ccccc1)c1ccc(N2CCOCC2)c(NC(=O)c2ccco2)c1
- HPGD inh: -17%

Cc1ccc(/C=N/NC(=O)COc2ccccc2-c2ccccc2)cc1
- HPGD inh: -13%

CCNc1nc(SC(C)C(=O)Nc2ccccc2)nc(N2CCOCC2)n1 (stereo unspecified)
- HPGD inh: -15%

O=S(=O)(c1ccc2oc3ccccc3c2c1)N1CCOCC1
- HPGD inh: -4%

O=C(CCc1ccccc1)Nc1nn[nH]n1
- HPGD inh: -10%

CC(C)NCC(O)c1ccc(O)c(O)c1 (stereo unspecified)
- HPGD inh: -13%&-5%&-7%&2%

COc1ccc(Nc2ncnc3nc[nH]c23)cc1OC
- HPGD inh: -4%

COc1ccc(NC(=O)c2cc(-c3ccc(C)o3)nc3ccccc23)cc1OC
- HPGD inh: ?

O=C(Cc1csc(N2CCOCC2)n1)N/N=C/c1ccc(Cl)cc1Cl
- HPGD inh: -5%

CCCNC(=O)NC(=O)CSc1nnc(-c2ccncc2)n1CC
- HPGD inh: -22%

Cc1cc(N)ccc1N1CCCC1
- HPGD inh: -5%

COc1cccc(NCc2cc(=O)oc3cc(-c4ccccc4)c(O)cc23)c1
- HPGD inh: 0%

O=C(NCCSc1ccccc1)c1ccc(Br)cc1
- HPGD inh: -15%

N#Cc1c(NC(=O)c2ccc(-c3ccccc3[N+](=O)[O-])o2)sc2c1CCCC2
- HPGD inh: -22%

O=C(Nc1ccc(S(=O)(=O)N2CCOCC2)cc1)C1COc2ccccc2O1 (stereo unspecified)
- HPGD inh: 5%

CCc1ccc(OCC(=O)NNC(=O)CSc2nnc(-c3ccc(C)cc3)n2C)cc1
- HPGD inh: -12%

CN1OC(COC(=O)c2ccc(Cl)cc2)CC1c1ccccc1 (stereo unspecified)
- HPGD inh: -2%

C[C@H](CCC(=O)O)[C@H]1CC[C@@H]2[C@H]3CC[C@H]4C[C@H](O)CC[C@@]4(C)[C@@H]3CC[C@@]21C
- HPGD inh: 0%

CC(C)(C)c1nc(SCC(=O)Nc2ccc3c(c2)OCCO3)c2ccccc2n1
- HPGD inh: -7%

CCc1ccc2nc3n[nH]c(N)c3cc2c1
- HPGD inh: 28µM*

COc1ccccc1OCc1ccc(C(=O)NCc2cccnc2)o1
- HPGD inh: -3%

N#Cc1c(N)oc(-c2ccco2)c1-c1ccco1
- HPGD inh: ?

O=C(CCC(=O)N1CCN(c2ccccn2)CC1)Nc1nnc(C2CCCCC2)s1
- HPGD inh: ?

Cc1ccc(N2CCN(c3ccc(NCc4nc5ccccc5n4C)cc3)CC2)cc1
- HPGD inh: ?

COc1ccc(Nc2nnc(C)c3ccccc23)cc1C(N)=O
- HPGD inh: -3%

Cc1cc(C)cc(NC(=S)NCc2ccc(F)cc2)c1
- HPGD inh: -20%

NC(=O)C1(S(=O)(=O)c2ccccc2)CCCCC1
- HPGD inh: -5%
